Vaccinia Venus – inhibitors of vaccinia virus (Venus reporter). Potency, µM (series often up to 36.5 µM), for inactives: at the highest dose activity change, negative = inhibition, actives largely listed as inhibitors. Vaccinia virus Venus reporter expression, fluorescence. 330,000 tested, 0.46% active; active means well fitted inhibition curve with a large enough effect; inconclusive means small, poorly fitted or top-dose-only effect; inactive means no such curve, though single readings can be large or run the other way; tested in A549 cells; further: nearly all actives have a fitted effect of over 30% in size; inactives centre near -10
Vaccinia mCherry – inhibitors of vaccinia virus infection (mCherry reporter signal). AID 720579. 310,000 tested, 0.63% active. Potency, µM (highest dose often 36.5 µM), without a hit: at the highest dose activity change, negative = inhibition, hits mostly inhibitors. Vaccinia virus mCherry reporter infection, fluorescence; about a quarter of the inactives have no number; active = well fitted inhibition curve with a large enough effect; inconclusive = small, poorly fitted or top-dose-only effect; inactive = no such curve, though single readings can be large or run the other way; tested in A549 cells; further: nearly all actives have a fitted effect of over 35% in size; inactives centre near -10
An asterisk follows results filed as active; i = inactive; ? = inconclusive; . = no result given; & = joins results of further samples; [ ] = remark or other dose. On the % scale 0 is the no-effect control and ±100 the full control effect; potency means the concentration at half of the fitted maximal effect. Rows were taken by chance; overall some 0.87% were active at least once.

SMILES | Vaccinia Venus | Vaccinia mCherry
CN1CCN(S(=O)(=O)c2cnc(Cl)c(Br)c2)CC1 | ? | 13µM*
CC(C)(C)CC(=O)NC1CC(=O)N(c2ccc3c(c2)OCCO3)C1 (centres undefined) | 7% | 14%
O=[N+]([O-])c1ccc(N2CCNCC2)c(Cl)c1 | -12% | i
Cc1ccc(NC(=O)CCC(=O)n2nc(C)cc2C)c(C)c1 | -22% | i
COC(=O)c1ccc(C(=O)Nc2ccc(N)cc2N)cc1 | -3% | .
CCC(CCC(C)C1CCC2C3CCC4CC(O)CC[C@@]4(C)C3CC[C@@]12C)C(C)C (some centres undefined) | -1% | -8%
Cc1nc2nc(SCC(=O)NC3CCC(C)CC3)nn2c(C)c1Cc1ccccc1 (centres undefined) | -7% | -12%
O=C(NC1CCCCC1)c1ccc(CSc2nc3cccnc3n2Cc2cccc(F)c2)cc1 | -12% | -22%
Cc1ccc(C)c(OCC(=O)N/N=C/c2ccsc2)c1 | -10% | -15%
CCS(=O)(=O)c1ccc2oc(SCC(=O)N3CCCCC3)nc2c1 | ? | ?
CC1(CCc2ccc(O)cc2)NC(=O)NC1=O (centres undefined) | -5% | i
CCOC(=O)c1c(NC(=O)Cn2nc(C(=O)O)c3ccccc3c2=O)sc2c1CCC(C)C2 (centres undefined) | -17% | ?
COc1cc(C(=O)COC(=O)c2cc([N+](=O)[O-])ccc2N2CCOCC2)ccc1OC(F)F | -23% | -9%
CCOc1ccc(/C=C(\C#N)C(=O)Nc2cccnc2)cc1 | 0% | i
Cc1ccccc1C(=O)Nc1c(C)nc(Nc2ccccc2)nc1Nc1ccccc1 | -18% | -24%
CC(C)C(=O)Nc1ccccc1N1CCN(C(=O)c2ccccc2)CC1 | -10% | .
CCOC(=O)C1CCN(C(=S)Nc2ccc(S(N)(=O)=O)cc2)CC1 | -17% | i
COc1ccc(Br)cc1C1=CC(=O)C[C@H](c2ccc(F)cc2)C1 | -24% | -14%
COc1cccc(NC(=O)N2CCC(n3c(C)nc4cccnc43)CC2)c1 | 3% | -10%
CC(C)Cc1ccc(-c2cc3nc(NCCOc4ccccc4)ccn3n2)cc1 | -7% | -19%
COc1cc(C(=O)NC2(C(F)(F)F)NC(=O)N(CCCc3ccccc3)C2=O)cc(OC)c1OC (centres undefined) | -19% | i
Cc1ccc(CN2CCNC(=O)C2CC(=O)N(C)C(C2CC2)C2CC2)o1 (centres undefined) | -1% | -23%
CCCCN(CC)CCCNC(=O)Cn1ncc2c3ccccc3n(C)c2c1=O | -2% | -1%
Cc1ccc(C)c(OCCCNC2CCCC2)c1C | -19% | -22%
O=C(Cn1c(=O)oc2cc(S(=O)(=O)N3CCCC3)ccc21)N1CCc2ccccc2C1 | -8% | 30%
COc1ccc(N(CC(=O)Nc2c(C)n(C)n(-c3ccccc3)c2=O)S(=O)(=O)c2ccccc2)cc1OC | -9% | -24%
CC1(C(=O)NS(=O)(=O)c2cccc(Cl)c2)CCN1C(=O)CC1CC1 (centres undefined) | -1% | 34%[activator]
COc1ccc(OC)c(NC2c3ccccc3C(=O)N2c2cccnc2)c1 (centres undefined) | -9% | -21%
COC(=O)c1ccccc1NS(=O)(=O)c1c(C)noc1C | -9% | -20%
Cc1cc(C)c(S(=O)(=O)NCCn2c(C)cc3ccccc32)c(C)c1 | -10% | 23%
O=C(Nc1cccc(S(=O)(=O)N2CCCCC2)c1)c1ccc(OCC2CCCO2)cc1 (centres undefined) | -3% | i
Oc1ccc(N=Nc2nccs2)c(O)c1 | ? | 4µM*
CN1CCC(C)(C(=O)Nc2cccc3c2CCCC3)C1 (centres undefined) | 1% | -7%
C[C@H](CO)N1C[C@H](C)[C@@H](CN(C)Cc2ccccc2)Oc2c(NC(=O)c3ccncc3)cccc2C1=O | -17% | i
CC1CCCC(NC(=O)Cn2c(Cl)nc3c2c(=O)n(C)c(=O)n3C)C1C (centres undefined) | -7% | -8%
COc1ccccc1CNC(=O)C1CCN(S(=O)(=O)N2CC(C)CC(C)C2)CC1 (centres undefined) | -20% | ?
Nc1ncnc2c1nc(Sc1ccc(Cl)cc1)n2[C@H]1OC2COP(=O)(O)O[C@H]2[C@@H]1O (some centres undefined) | -13% | -3%
COc1cc(C2C(=O)N(C3CCCCCC3)CC(=O)N2Cc2ccccc2)ccc1OC(C)C (centres undefined) | -12% | -10%
COc1ccccc1-c1csc(C(O)c2cccc(Cl)c2)n1 (centres undefined) | 3% | -5%
Clc1ccc(Nc2nc(-c3cccnc3)cs2)cc1 | -6% | .
N#CCC(=O)N/N=C/c1cn(Cc2ccccc2C#N)c2ccccc12 | -13% | -4%
C(=N\N1CCN(Cc2cccc3ccccc23)CC1)/c1ccco1 | -23% | .
C=CC(=O)Nc1ccc(N(C)c2ccnc(Nc3ccc(N4CCN(C)CC4)cc3)n2)cc1 | 7.9µM* | 6.3µM*
Cc1ccccc1OCCSc1nc2ccc(NC(=O)c3cccc(F)c3)cc2s1 | -14% | -10%
CCS(=O)(=O)N1CCCC(C(=O)NC2CCCCC2C)C1 (centres undefined) | -13% | -21%
O=S(=O)(Nc1ccc(NS(=O)(=O)c2ccccc2)c(Cl)c1)c1ccccc1 | -11% | -6%
COC(=O)C1CCN(S(=O)(=O)c2c[nH]c(=O)[nH]c2=O)CC1 | -4% | i
COc1ccc(OC)c(C(c2nnnn2CCc2ccccc2)N2CCC(C(N)=O)CC2)c1 (centres undefined) | -7% | -14%
COCCNC(=O)C(c1ccc(F)cc1)N(C(=O)CCC(=O)Nc1nccs1)c1ccc(C)cc1 (centres undefined) | -23% | i
COc1ccc(OC(=O)COc2cc(C)ccc2C)cc1 | 10% | i

Other entries follow.
SMILES | Vaccinia Venus | Vaccinia mCherry
Cc1ccc(-n2nc(C(=O)N3CCC(C)CC3)c(=O)n(C)c2=O)cc1 | -6% | -15%
Cc1ccc(NC(=O)CC2=NC(=O)C(CC(=O)Nc3ccccc3C)S2)cc1 (centres undefined) | -21% | -14%
CCC(CC)C(C(=O)NCc1ccccc1)N(C)Cc1ccc(Cl)c(Cl)c1 (centres undefined) | -8% | -24%
COC(=O)c1cc(=O)n2c(-c3ccccc3)csc2n1 | 1% | -6%
CC1Cc2cc(S(=O)(=O)N3CCC(C(=O)N4CCCCC4)CC3)ccc2N1C(=O)C1CC1 (centres undefined) | -22% | i
O=C(Nc1ccccn1)C1(c2cccs2)CCOCC1 | -13% | i
CCOc1ccc(C(=O)NCC2CCCN2S(=O)(=O)c2cccs2)cc1 (centres undefined) | -18% | -20%
Cc1ccc(C(=O)Nc2ccc(F)cc2)o1 | ? | i
Cc1cccnc1NC(=O)CCc1c[nH]c2ccccc12 | -29% | -6%
COc1ccc2nc3oc(C(=O)Nc4cccc(C(F)(F)F)c4)cc3cc2c1 | -15% | -15%
COc1cc(/C=C/C(=O)OCC(=O)c2c(N)n(C)c(=O)n(C)c2=O)ccc1OCC#N | -24% | -17%
FC(F)Oc1ccccc1/C=N/Nc1nc2ccccc2o1 | -3% | 9%
CCOc1ccc(NC(=O)CSc2nnc(C(C)C)n2CC)cc1 | -1% | -11%
Cc1ccc(S(=O)(=O)N(C)CCCC(=O)N2CCOCC2)cc1 | 0% | -13%[1.46 µM]
Cc1cn2c(nc(=O)c3cccnc32)s1 | -14% | i
CCOC(=O)Cc1[nH]nc2c1C(c1cccc(OC)c1OC)C(C#N)=C(N)O2 (centres undefined) | -5% | -17%
O=C(Nc1ccc(OC(F)F)cc1)Nc1cccc(C(F)(F)F)c1 | ? | -25%
CCN1CCN(CCCNC(=O)CNC(=O)c2nn(-c3ccc(OC)cc3OC)c(=O)c3ccccc23)CC1 | -3% | -18%
CC(C)(C)c1ccc(NC(=O)COc2ccc(-n3ccnc3)cc2)cc1 | ? | .
Cc1nn(C(=O)c2nn(C)cc2[N+](=O)[O-])c(C)c1Br | -10% | -15%
CC1CCCCN1CCCNC(=O)c1sc2ncccc2c1-n1cccc1 (centres undefined) | -14% | -9%
CCn1c(Oc2ccccc2)nc2c1c(=O)n(C)c(=O)n2C | 0% | -9%
CCN(CC)CCN(C(=O)CCS(=O)(=O)c1ccccc1)c1nc2cc3c(cc2s1)OCO3 | -29% | ?
Cc1ccc(C)c(OCCn2cc(/C=C(/C#N)C(=O)NCC3CCCO3)c3ccccc32)c1 (centres undefined) | -24% | ?
O=C(CN(Cc1ccco1)S(=O)(=O)c1ccccc1)N/N=C/c1cccc(O)c1 | -14% | .
O=C(O)c1cc(-c2ccccc2)nc2ccccc12 | -13% | -25%
O=C(COc1ccc(Br)cc1)Nc1ccccc1N1CCCC1 | 3% | -13%
Fc1ccc(C(c2nnnn2Cc2cccs2)N2CCN(C3CCCC3)CC2)cc1 (centres undefined) | -32% | ?
CCCCNC(=O)CNC(=S)N(CCCN1CCOCC1)Cc1cccs1 | -15% | -9%
Cn1nc(C(=O)NCc2ccccc2)c2c1-c1ccccc1S(=O)(=O)C2 | -3% | -4%

5 records drawn at random from the list so far:
SMILES | Vaccinia Venus | Vaccinia mCherry
CCN(CC)CCN(C(=O)CCS(=O)(=O)c1ccccc1)c1nc2cc3c(cc2s1)OCO3 | -29% | ?
Cn1nc(C(=O)NCc2ccccc2)c2c1-c1ccccc1S(=O)(=O)C2 | -3% | -4%
CCn1c(Oc2ccccc2)nc2c1c(=O)n(C)c(=O)n2C | 0% | -9%
O=C(CN(Cc1ccco1)S(=O)(=O)c1ccccc1)N/N=C/c1cccc(O)c1 | -14% | .
Cc1ccc(C)c(OCCn2cc(/C=C(/C#N)C(=O)NCC3CCCO3)c3ccccc32)c1 (centres undefined) | -24% | ?

Later entries.
SMILES | Vaccinia Venus | Vaccinia mCherry
CCN(C(C)=O)c1nnc(CSc2nc3ccccc3s2)s1 | -1% | -10%
CCOc1ccc(C(=O)Nc2ccccc2NC(C)=O)cc1OCC | -14% | -14%
COc1ccc(OC)c(/C=C2\S/C(=N/NC(=O)c3ccc4ccccc4c3)NC2=O)c1 | -7% | -11%
CC(C)C(NC(=O)c1ccccc1Br)c1ccccc1 (centres undefined) | 5% | -11%
CCOC(=O)CSc1nnc(-c2ccccc2)o1 | -11% | -17%
COc1ccc(CN2C[C@@H](CO)O[C@@H](n3cnc4c(N(C)C)ncnc43)C2)cc1 | -5% | 15%
Cc1ccc(-c2csc(NC(=O)C3CSC4(C)CCC(=O)N34)n2)cc1 (centres undefined) | -2% | i
CC(C)Cc1[nH]c(=O)c(C#N)c2c1COC(C)(C)C2 | 0% | .
O=C(CN1CCN(c2ccccc2F)CC1)NC(=O)NCc1ccco1 | -8% | i
Nc1nc(SCC(=O)N2N=C3/C(=C/c4ccco4)CCCC3C2c2ccco2)n[nH]1 (centres undefined) | -29% | .
O=C(CCCc1ccccc1)NCCS(=O)(=O)N1CCN(c2ccccc2)CC1 | -17% | ?
CCCCN1C(=O)C(=O)N(CC(=O)Nc2ccc(OC(F)(F)F)cc2)C1=O | -4% | i
CN(C(=O)C1CCN(S(=O)(=O)c2cccs2)CC1)C1CCCCC1 | -11% | -14%
O=C(c1cc(Br)c(Br)s1)N1CCN(c2ccccn2)CC1 | -15% | -14%
Cc1cccc(CNc2ncnc3ccc(-c4c(C)noc4C)cc23)c1 | 1% | 3%
COc1ccc(NC(=O)Cc2ccc(Cl)cc2Cl)cn1 | -4% | i
CC(C(=O)O)n1nc2ccccc2n1 (centres undefined) | 2% | -4%
CCn1nnnc1NC(=O)c1cccc(OC)c1 | -4% | 0%
CCCCCCCCN1[C@@H](CC(=O)OCC)c2ccc(C(F)(F)F)cc2S1(=O)=O | -2%&-19% | -7%
COCc1c(C(=O)OCC(=O)NCCN2C(=O)CSC2=O)oc2ccccc12 | -9% | -6%
Cc1c(Cl)c(=O)oc2cc(OC(C)C)ccc12 | -16% | i
Cc1ccc(NCc2n[nH]c(=S)n2-c2ccccc2)cc1Cl | 1% | -11%
Cc1cccc(OCC(=O)NCCCNC(=O)c2ccncc2)c1 | -9% | -10%
CC(=O)Nc1cccc(NC(=O)CCCC2CCCCC2)c1 | -4% | -4%
COC(=O)c1cccc(NC(=O)c2cnn(C)c2)c1 | -8% | -13%
CCn1ncc(Br)c1C(=O)Nc1cccc(C(C)=O)c1 | -13% | 4%
Cc1ccc(C(=O)C2CC2)c(C)c1 | 1% | i
CN(C(=O)COC(=O)c1cc[n+]([O-])cc1)c1ccccc1 | -13% | i
COc1cc(NC(=O)C2CCCN(c3ncccn3)C2)cc(OC)c1 (centres undefined) | -26% | -25%
O=C(NCCc1ccccc1)C(=S)N1CCCCC1 | -7% | i
Cc1ccc(NC(=O)CS(=O)CC(=O)NC23CC4CC(CC(C4)C2)C3)cc1 (centres undefined) | -7% | -3%
CN(C)CCn1cnc2c1c(=O)n(C)c(=O)n2C | -13% | i
CCC(C)NC(=O)CS(=O)Cc1nc(-c2cccc(OC)c2)oc1C (centres undefined) | -13% | i

Some values from the list.
In Vaccinia Venus, Clc1ccc(Nc2nc(-c3cccnc3)cs2)cc1 shows -6%
In Vaccinia Venus, Cc1ccc(-n2nc(C(=O)N3CCC(C)CC3)c(=O)n(C)c2=O)cc1 shows -6%
In Vaccinia Venus, CC1CCCCN1CCCNC(=O)c1sc2ncccc2c1-n1cccc1 (centres undefined) shows -14%
In Vaccinia Venus, COc1ccc(Br)cc1C1=CC(=O)C[C@H](c2ccc(F)cc2)C1 shows -24%
In Vaccinia Venus, Cc1cccnc1NC(=O)CCc1c[nH]c2ccccc12 shows -29%

Bioassay records: PubChem, National Center for Advancing Translational Sciences (NCATS)
